Arbovirus anti: arbovirus infection inhibition; arbovirus infection cell-based antiviral screen; inhibition, % at 10 µM; 200,000 tested, 0.37% active;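 active = inhibition from about 30%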;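 note: bluetongue infection of BSR cells; cell survival read as ATP light after 72 h; 0% = infected wells without compound and 100% = uninfected wells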
Mtb bLac sens: beta-lactam sensitization of Mtb H37Rv; M. tuberculosis H37Rv growth with meropenem, percent inhibition; hits of this screen are not shown here; inhibition, % at 25 µM; 330,000 tested, 0.27% active;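 active = about 74% or more and at least 40 points above the plate without the antibiotic, then above 30% in a dose series; inconclusive = first-round hits that could not be retested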;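 note: growth measured after seven days incubation then overnight dye step; 0% = bacteria only wells and 100% = bacteria with antibiotic; twin plates without the antibiotic show which effects depend on it; some results filed as inactive read as strong as hits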
Mtb growth: M. tuberculosis H37Rv growth inhibitors, H37Rv strain (AID 1626). one-dose inhibition, % at 10 µM; IC50 in µM for titrated hits. 220,000 tested, 0.95% active. M. tuberculosis H37Rv growth inhibition; higher % means a stronger effect;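 active = confirmed in a dose series; inconclusive = inhibition above 80% but not taken into the dose series; inactive = below 80% or under 30% at every dose of the series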;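 note: bacteria incubated seven days before Alamar blue readout; 0% = bacteria only wells and 100% = bacteria with antibiotic wells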
RecA splice inh: inhibitors of M. tuberculosis RecA intein splicing; P9WHJ3; cell-free RecA intein splicing, fluorescence; inhibition, %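 (about 9 µM by stock and volumes)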; 290,000 tested, 0.75% active; in the data active = inhibition above about 30%; inconclusive = no clear call, values can overlap the other calls;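 note: 0% = vehicle wells and 100% = reference inhibitor control wells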
Target sequence (P9WHJ3 whole entry, looked up, canonical isoform): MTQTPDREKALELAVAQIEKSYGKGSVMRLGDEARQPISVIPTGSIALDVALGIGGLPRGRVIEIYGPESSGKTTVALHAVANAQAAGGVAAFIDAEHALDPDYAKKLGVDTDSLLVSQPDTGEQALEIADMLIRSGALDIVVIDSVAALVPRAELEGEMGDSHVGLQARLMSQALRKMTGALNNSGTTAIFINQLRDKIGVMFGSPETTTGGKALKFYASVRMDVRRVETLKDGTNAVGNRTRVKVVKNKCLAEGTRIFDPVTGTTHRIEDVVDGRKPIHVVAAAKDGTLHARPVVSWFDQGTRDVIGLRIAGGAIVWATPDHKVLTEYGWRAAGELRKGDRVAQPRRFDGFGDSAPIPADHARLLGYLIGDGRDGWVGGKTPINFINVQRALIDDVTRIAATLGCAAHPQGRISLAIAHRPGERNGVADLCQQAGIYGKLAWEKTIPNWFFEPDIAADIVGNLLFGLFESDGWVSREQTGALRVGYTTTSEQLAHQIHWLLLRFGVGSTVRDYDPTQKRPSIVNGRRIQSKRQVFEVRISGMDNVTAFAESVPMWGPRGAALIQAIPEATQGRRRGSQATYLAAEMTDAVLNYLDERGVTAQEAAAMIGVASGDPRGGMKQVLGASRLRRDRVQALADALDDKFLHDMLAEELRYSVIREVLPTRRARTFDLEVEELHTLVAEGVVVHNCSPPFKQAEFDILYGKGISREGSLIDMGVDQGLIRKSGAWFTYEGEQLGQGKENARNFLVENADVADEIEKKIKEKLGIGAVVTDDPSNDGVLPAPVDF
YopH inh: inhibitors of Yersinia enterocolitica YopH tyrosine phosphatase; fluorescence Ex485/Em525; inhibition, %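 (about 10 µM by stock and volumes)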; 140,000 tested, 0.16% active; AID 898;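 active = inhibition of 50% or more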;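 note: controls were vehicle for no effect and minimum signal wells for full effect; inactives centre near -20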
Arbovirus anti repeat: recorded beside Arbovirus anti, whose call it bears; inhibition, %; measured here: 10K subset replicate screen; many hits read low in the repeat;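 first of two repeat runs on a subset; 0% = infected and 100% = uninfected wells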
Starred values were filed as active, the others as inactive. Not all compounds are listed, so the mix of outcomes need not match the whole.

`CC(C)(C)c1ccc(C(=O)NCC2CCCN2S(=O)(=O)c2ccccc2)cc1` (configuration not stated) gave Mtb bLac sens -2.1 and RecA splice inh 5.7.
`COC(=O)c1ccc(C(=O)OC)c(NC(=O)Oc2ccccc2)c1` gave Arbovirus anti -1.7, Mtb bLac sens -1.2, Mtb growth -3.7%, RecA splice inh -90.1 and YopH inh 5.2.
Screening Cc1ccc2nc(NC(=O)c3cc(-c4ccco4)nc4ccccc34)sc2c1 returned Arbovirus anti 19.9, Mtb bLac sens -0.7, Mtb growth 3.7%, RecA splice inh -2.0 and YopH inh -5.3.
COc1cccc(C(=O)C2CCCN(Cc3cccc(C)n3)C2)c1 (configuration not stated) was read as Arbovirus anti 1.5, Mtb bLac sens 77.2, Mtb growth 6.5% and RecA splice inh -2.1.
O=C(O)CCC(=O)NCc1ccc(F)cc1 was read as Arbovirus anti 12.4, Mtb bLac sens -4.8, Mtb growth 6.1%, RecA splice inh -5.4 and YopH inh -16.5.
For Cc1ccc(-c2nc(C(Cl)Cl)c3ccccc3n2)cc1 the results were Mtb bLac sens 89.0, Mtb growth 4.4µM* and RecA splice inh -0.8.
`O=S(=O)([N-]c1nc2ccccc2nc1-[n+]1ccc(Cc2ccccc2)cc1)c1ccc(Br)s1` gave Mtb bLac sens 44.8, Mtb growth 65.0% and RecA splice inh 0.2.
`CCN(CC)S(=O)(=O)c1cccc(C(=O)NC(Cc2c[nH]c3ccccc23)c2nnc3n2CCCCC3)c1` (configuration not stated) gave Arbovirus anti 1.2, Mtb bLac sens -11.5, Mtb growth 7.0%, RecA splice inh 0.5 and YopH inh -12.1.
Screening COc1cc(C(C2=C(O)CC(C)(C)CC2=O)C2C(=O)CC(C)(C)CC2=O)cc(OC)c1OC (configuration not stated) returned Arbovirus anti 0.8, Mtb bLac sens 47.2, Mtb growth -4.3% and RecA splice inh -0.7.
Screening COc1ccc(Cc2nc(-c3ccc(Br)cc3)no2)cc1 returned Arbovirus anti 8.8, Mtb bLac sens 5.2, Mtb growth 7.7%, RecA splice inh 4.2 and YopH inh -20.1.
Screening O=C(CSc1nncn1-c1ccccc1)NC1CCCc2ccccc21 (configuration not stated) returned Arbovirus anti 1.8, Mtb bLac sens 1.2, Mtb growth 6.0%, RecA splice inh 3.5 and YopH inh -6.0.
For COc1ccc(S(=O)(=O)n2c([N+](=O)[O-])cnc2C)c(C)c1C the results were Mtb bLac sens -1.5 and RecA splice inh 0.4.

In the list so far, two contain bromine.
`O=S(=O)([N-]c1nc2ccccc2nc1-[n+]1ccc(Cc2ccccc2)cc1)c1ccc(Br)s1` gave Mtb bLac sens 44.8, Mtb growth 65.0% and RecA splice inh 0.2.
Screening COc1ccc(Cc2nc(-c3ccc(Br)cc3)no2)cc1 returned Arbovirus anti 8.8, Mtb bLac sens 5.2, Mtb growth 7.7%, RecA splice inh 4.2 and YopH inh -20.1.

New compounds follow.
For S=C(NCC(c1cccnc1)N1CCOCC1)NC1CCCCC1 (configuration not stated) the results were Arbovirus anti -1.6, Mtb bLac sens -10.1, Mtb growth -1.1% and RecA splice inh -1.3.
`CSc1ccccc1C(=O)NCC(c1ccco1)N1CCCCC1` (configuration not stated) gave Arbovirus anti -0.2, Mtb bLac sens -5.4, Mtb growth -3.0% and RecA splice inh -2.1.
Screening Cc1cc(C)cc(NC(=O)c2cc(S(=O)(=O)NCc3ccco3)ccc2F)c1 returned Arbovirus anti 17.2, Mtb bLac sens 17.7, Mtb growth -3.8%, RecA splice inh 4.1 and YopH inh 0.6.
Screening Cc1cc(C(=O)Cn2ncc(Cl)c(Cl)c2=O)c(C)n1CC(F)(F)F returned Arbovirus anti -38.0, Mtb bLac sens 99.8, Mtb growth inconclusive, RecA splice inh 36.1* and YopH inh -7.2.
For Cc1oc(-c2cccs2)nc1CSCC(=O)NC1CC1 the results were Arbovirus anti 3.8, Mtb bLac sens -1.3, Mtb growth -4.4%, RecA splice inh -0.9 and YopH inh -6.1.
For COc1cccc2sc(N(C)c3ccccc3)nc12 the results were Arbovirus anti -1.1, Mtb bLac sens 9.2, Mtb growth 0.3%, RecA splice inh 3.4 and YopH inh -10.4.
For O=S(=O)(c1ccc2ccccc2c1)N1CCN(C2Cc3ccccc3C2)CC1 the results were Arbovirus anti 0.3, Mtb bLac sens -5.6, Mtb growth 0.9%, RecA splice inh -9.2 and YopH inh -24.0.
Screening Cc1c(Cl)c([N+](=O)[O-])nn1Cc1ccc(C(=O)N/N=C\c2ccccn2)o1 returned Arbovirus anti -10.7, Mtb bLac sens -1.4, Mtb growth -4.8% and YopH inh -15.3.
Screening Cc1ccc(Nc2ncnc3c2cnn3C)cc1 returned Arbovirus anti -11.7, Mtb bLac sens 2.7, Mtb growth -8.1% and RecA splice inh 0.9.
For COc1cc(C(=O)Nc2cc3c(cc2N2CCCCC2)n(C)c(=O)n3C)cc(OC)c1OC the results were Mtb bLac sens 9.0 and RecA splice inh 2.3.
For O=S(=O)(NCCO)c1ccc2c(c1)Cc1cc(S(=O)(=O)NCCO)ccc1-2 the results were Mtb bLac sens -1.5 and RecA splice inh -0.3.
Screening COc1ccc(OC)c(NC(=O)CCC(=O)Nc2nnc(C(C)C)s2)c1 returned Mtb bLac sens -5.4 and RecA splice inh -2.7.
Screening Cc1ccc2[nH]c(=O)c(CN(CCc3ccccc3)C(=O)N3CCOCC3)cc2c1 returned Arbovirus anti -9.5, Mtb bLac sens -3.0, Mtb growth -4.1%, RecA splice inh -5.8 and YopH inh -26.0.
For CCCCn1c(N)c(N(CCOC)C(=O)CSc2n[nH]c(-c3ccc(OC)cc3)n2)c(=O)[nH]c1=O the results were Mtb bLac sens -9.0 and RecA splice inh 3.0.
CCN(CC)CC#CC(C)(C)OC(C)=O was read as Mtb bLac sens -3.9, Mtb growth -1.6%, RecA splice inh 1.4 and YopH inh -30.5.
Screening O=C1CCC([N+](=O)[O-])C(c2cc3c(cc2Cl)OCO3)N1 (configuration not stated) returned Arbovirus anti 1.9, Mtb bLac sens -6.3, Mtb growth -5.5% and RecA splice inh -0.2.
Screening CCC(Sc1nc2n[nH]c(C)c2c(=N)n1-c1ccc(C)c(Cl)c1)C(=O)N1CCOCC1 (configuration not stated) returned Arbovirus anti -13.1, Mtb bLac sens -1.0, Mtb growth -13.1%, RecA splice inh -1.5 and YopH inh -40.0.
For O=C(Nc1ccc(C(=O)N2CCOCC2)cc1)Nc1ccc(Cl)cc1Cl the results were Arbovirus anti 6.2, Mtb bLac sens -1.6, Mtb growth 1.3% and RecA splice inh -1.3.
Screening COc1cccc(C(C(=O)NCc2ccccc2)N(C(=O)c2csnn2)C2CC2)c1 (configuration not stated) returned Mtb bLac sens -2.6 and RecA splice inh 2.1.
Screening Cc1ccccc1N(CC(=O)N/N=C/c1ccccc1Cl)C(=O)c1ccccc1 returned Arbovirus anti -6.9, Mtb bLac sens 0.9, Mtb growth -8.2%, RecA splice inh -0.2 and YopH inh -64.2.
For CCOC(=O)CSc1nc2c(sc(=S)n2Cc2ccco2)c(=O)n1-c1ccc(F)cc1 the results were Arbovirus anti 8.4, Mtb bLac sens -12.2, Mtb growth 4.8%, RecA splice inh 2.1 and YopH inh -34.5.
COc1ccc(C2=NCCc3cc(OC)c(OC)cc32)cc1OC was read as Arbovirus anti 3.7, Mtb bLac sens 4.4, Mtb growth -1.5%, RecA splice inh -11.2 and YopH inh -30.6.
O=C(C1CCCO1)N1CCN(Cc2nc3ccccc3c(=O)[nH]2)CC1 (configuration not stated) was read as Arbovirus anti 4.2, Mtb bLac sens 3.7, Mtb growth -10.8%, RecA splice inh -0.1 and YopH inh 6.3.
N#Cc1c(NC(=O)CN2CCN(C(=O)c3ccco3)CC2)sc2c1CCCCC2 was read as Arbovirus anti 5.8, Mtb bLac sens 98.2, Mtb growth 65.5%, RecA splice inh 3.8 and YopH inh -29.7.
OCC12COC(c3ccccc3)N1C(c1ccccc1)OC2 (configuration not stated) was read as Arbovirus anti -0.4, Mtb bLac sens 14.5, Mtb growth -6.5%, RecA splice inh -0.6 and YopH inh -45.4.
For COc1ccc(NC(=O)c2ccc(NC(=O)c3ccco3)cc2)c(OC)c1 the results were Mtb bLac sens 4.2 and RecA splice inh 7.4.
COc1ccc(CS(=O)(=O)/C(Cl)=C(/Cl)C(=O)Nc2ccc(OC)nc2)cc1 was read as Arbovirus anti -35.6, Mtb bLac sens 60.1, Mtb growth 11.3%, RecA splice inh 77.6* and YopH inh -4.6.
Screening CCOC(=O)c1ccc(NC2OC(=O)c3ccccc32)cc1 (configuration not stated) returned Arbovirus anti -4.8, Mtb bLac sens 97.0, Mtb growth inconclusive and YopH inh -6.3.
For Cc1oc2cc3oc(=O)c(CCC(=O)N(C)CC(=O)O)c(C)c3cc2c1C the results were Mtb bLac sens inconclusive and RecA splice inh -3.8.
For COc1cc(/C=N/N2CCOCC2)ccc1OC(=O)c1ccco1 the results were Arbovirus anti -2.8, Mtb bLac sens 83.1, Mtb growth -1.9% and RecA splice inh 28.0.
Screening CC(=O)NC(CCCNC(=S)NC1CCCCC1)C(=O)O (configuration not stated) returned Arbovirus anti 5.1, Mtb bLac sens 1.1, Mtb growth -8.9% and RecA splice inh -4.6.
For O=C(Nc1ccccn1)c1ccc([N+](=O)[O-])o1 the results were Arbovirus anti -41.6, Mtb bLac sens 99.9, Mtb growth 74.5%, RecA splice inh -5.1 and YopH inh -32.5.
Screening CC(C)C1C(c2ccccc2)NC(c2ccccc2)CC1(O)c1ccc(F)cc1 (configuration not stated) returned Mtb bLac sens 79.5 and Mtb growth inconclusive.
COc1ccc(OC)c(-n2c(=O)c3ccccc3c3ccccc3c2=O)c1 was read as Arbovirus anti -0.9, Mtb bLac sens 2.9, Mtb growth -4.6%, RecA splice inh -0.8 and YopH inh -12.4.
`COc1ccc(Cn2nnnc2CN(Cc2cc3cc(C)ccc3[nH]c2=O)C2CCCC2)cc1` gave Arbovirus anti 2.2, Mtb bLac sens 0.8, Mtb growth -1.3%, RecA splice inh 1.6 and YopH inh 5.8.
`COc1cccc(OCc2cc(C(=O)N(Cc3nccn3C)C(C)C)no2)c1` gave Mtb bLac sens 3.3 and RecA splice inh -0.6.
Screening O=C(NNc1cccc(Cl)n1)c1c(Cl)cccc1Cl returned Arbovirus anti -0.6, Mtb bLac sens 2.4, Mtb growth 3.2%, RecA splice inh 0.4 and YopH inh -33.2.
For O=C(CCC(=O)OCc1ccc(C(=O)Oc2ccc(Cl)cc2)cc1)Nc1ccccc1 the results were Arbovirus anti 6.5, Mtb bLac sens 99.9, Mtb growth inconclusive, RecA splice inh -0.2 and YopH inh -13.7.
`COc1ccc2ccccc2c1-c1csc(N)n1` gave Mtb bLac sens -2.7 and RecA splice inh 0.7.
Screening O=C(Cc1sc(-c2ccccc2Cl)nc1-c1ccccc1)Nc1ccc(F)cc1 returned Arbovirus anti -13.9, Mtb bLac sens -4.5, Mtb growth -0.9%, RecA splice inh -1.3 and YopH inh -24.0.
COc1ccc(CCNC(=O)C2CCCN(S(=O)(=O)c3cc(C)ccc3OC)C2)cc1OC (configuration not stated) was read as Mtb bLac sens inconclusive and RecA splice inh -5.2.
O=C(O)c1ccc(/C=C2\CCCc3c2nc2ccccc2c3C(=O)O)cc1 was read as Mtb bLac sens 11.4 and RecA splice inh -2.3.
O=C(Nc1nc(-c2ccco2)c(-c2ccco2)s1)c1cnccn1 was read as Mtb bLac sens 48.2 and RecA splice inh 5.4.
`CN(C)N(Cc1ccccc1)C(=O)C(O)(c1ccccc1)c1ccccc1` gave Mtb bLac sens -12.4 and RecA splice inh 2.3.
`C=CCn1c(=N)n(CC(O)COc2ccc(OC)cc2)c2ccccc21` (configuration not stated) gave Arbovirus anti -15.7, Mtb bLac sens -4.1, Mtb growth 4.5%, RecA splice inh -0.3, YopH inh -17.4 and Arbovirus anti repeat -6.8.
CCN(CC)CCNC(=O)c1ccc(NC(=O)c2cn(-c3ccccc3)nc2-c2cccs2)cc1 was read as Arbovirus anti -30.1, Mtb bLac sens 93.8, Mtb growth 15.3% and RecA splice inh -1.7.
CCCC(O)(c1ccc(Br)cc1)C(CN1CCOCC1)c1ccc(Cl)cc1 (configuration not stated) was read as Mtb bLac sens inconclusive and RecA splice inh -0.1.
CC(C)Cn1c(N)c(C(=O)COC(=O)/C=C/c2ccccc2)c(=O)n(C)c1=O was read as Mtb bLac sens -3.5 and RecA splice inh 0.3.
Screening COc1ccccc1C(=O)C1CCCN(C(=O)c2cc(C(C)C)no2)C1 (configuration not stated) returned Arbovirus anti -4.7, Mtb bLac sens 0.7, Mtb growth 1.1% and RecA splice inh -10.4.
CCOc1ccccc1C(=O)N1CCOCC1 was read as Arbovirus anti 1.1, Mtb bLac sens -7.8, Mtb growth 1.6%, RecA splice inh 1.1 and YopH inh -11.2.
COc1cccc(NC(=O)C2C3C=CC4(O3)C2C(=O)N(CCCN2CCC(C)CC2)C4C(=O)NC2CCCCC2)c1 (configuration not stated) was read as Mtb bLac sens -4.4 and RecA splice inh -0.6.

Source: PubChem BioAssay (several laboratories)
